GLA inh pH 4.5: alpha-galactosidase A (human) inhibition, pH 4.5; P06280; purified enzyme, 4-MU-alpha-Gal fluorescence, pH 4.5; activity change, negative = inhibition, % at 105 µM; 230,000 tested, under 10 active; inconclusive = small, poorly fitted or top-dose-only inhibition, or a rising curve; inactive = flat fitted curve, though single readings scatter; no compound was filed as active;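 note: 0% = full activity with enzyme and -100% = basal without enzyme; dose as in the result columns while the protocol names 77 µM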
Target sequence (P06280 whole entry, looked up): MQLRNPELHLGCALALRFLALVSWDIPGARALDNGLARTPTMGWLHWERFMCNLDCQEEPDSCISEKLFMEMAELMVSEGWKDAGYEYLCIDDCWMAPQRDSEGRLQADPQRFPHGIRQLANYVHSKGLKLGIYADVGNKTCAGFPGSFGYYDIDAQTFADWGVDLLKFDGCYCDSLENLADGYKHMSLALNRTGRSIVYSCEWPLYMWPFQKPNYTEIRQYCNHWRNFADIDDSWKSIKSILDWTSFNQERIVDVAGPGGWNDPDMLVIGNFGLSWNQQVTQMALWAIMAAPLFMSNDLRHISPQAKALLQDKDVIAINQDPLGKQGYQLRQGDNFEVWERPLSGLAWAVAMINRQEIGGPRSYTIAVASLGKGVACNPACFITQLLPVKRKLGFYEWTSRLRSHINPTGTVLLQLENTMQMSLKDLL
miR-21 FLuc: raises the signal of a miR-21 reporter; 340,000 tested, under 10 active; AID 2288; HeLa miR-21 FLuc reporter, luciferase, 48 h; Potency, µM (series often up to 38.3 µM), without a hit: at the top dose reporter change, positive = more light; active = well fitted rising curve with a large enough effect; inconclusive = small, poorly fitted or top-dose-only effect; inactive = no such curve, though single readings can be large or run the other way;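 note: % of control where 0% means no effect; miR-21 action dims this reporter so a rising signal means less miR-21 action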
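Luminescence from a firefly luciferase reporter carrying a miR-21 binding site downstream, stably expressed under a CMV promoter in HeLa cells that make miR-21 endogenously, reports miRNA modulation after 48 h compound exposure up to approximately 40uM final.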
Rango dissoc inh: inhibition of RanGTP-driven Rango-importin beta dissociation; Biochemical FRET Rango-importin beta, RanGTP-induced dissociation; Potency, µM (series often up to 46.1 µM), for inactives: at the highest dose activity change, negative = inhibition; 0.071% of 340,000 active; active means falling FRET ratio curve, often poorly fitted, with flat reads before Ran was added; inconclusive means other falling curves, or compound fluorescence or quenching; inactive means flat or rising ratio curve;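 note: potency is the fitted concentration of half-maximal effect; % of control where 0% means no effect; nearly all actives have a fitted effect of over 45% in size; -100% = wells without RanGTP and RCC1; the record marks most hits as doubtful in a second field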
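Compounds sat 5 min at room temperature with 0.1 uM Rango biosensor plus 0.25 uM importin beta, then FRET pre-read. RanGTP-RCC1 (0.6 uM Ran, 2mM GTP, 0.2 uM RCC1) added for 45 min, and the CFP/YFP post-read measured blocked complex dissociation.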
Rango complex inh: inhibitors of Rango-importin beta complex formation | Rango CFP/YFP FRET sensor + importin beta, 45 min | Potency, µM (highest dose often 92.2 µM), inactives show top-dose inhibition of complex formation | AID 540263 | 0.031% of 340,000 active | Q14974; active = rising FRET ratio curve, often small or poorly fitted; inconclusive = mostly compound fluorescence or quenching in the first reads; inactive = flat curves in all reads;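 note: potency is the fitted concentration of half-maximal effect; 0% = DMSO wells and 100% = buffer wells lacking importin beta; nearly all actives have a fitted effect of over 15% in size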
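FRET biosensor Rango (snurportin 1 IBB between N-terminal EYFP and C-terminal Cerulean), 50 nM in PBS/1 mM DTT/0.02% Tween-20/0.1% BSA, preincubated 5 min RT with compound; 0.125 microM importin beta added, 45 min RT, CFP/YFP FRET ratio read.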
Starred values were filed as active, the others as inactive; ? = inconclusive; . = no result given. A portion of the library (hit frequency here may not be typical).

GLA inh pH 4.5	compound	miR-21 FLuc	Rango dissoc inh	Rango complex inh
.	Cc1sc2ncnc(N3CCN(Cc4ccccc4)CC3)c2c1-c1ccccc1	4%	-10%	0.1%
2	CCOC(=O)C1=C(C)Nc2ccccc2N=C1NC(=O)CCCN1C(=O)c2ccccc2C1=O	-3%	0%	6.4%
.	COc1ccc(NC(=O)COC(=O)c2cc(S(=O)(=O)N3CCCC3)ccc2O)cc1	.	10%	0.1%
.	COc1ccc(-c2nc(NC(=O)c3c(C)noc3C)sc2C)cc1	.	29%	-1.2%
-3	O=C(CN(c1cccc(C(F)(F)F)c1)S(=O)(=O)c1ccc(Cl)c([N+](=O)[O-])c1)NCc1ccccc1Cl	?	36%	2.9%
.	CC1=C(C(=O)Nc2cc(C(=O)N(C)Cc3ccccc3)ccc2C)SCCO1	-3%	1%	2.7%
1	O=C(O)C1CN(C(=O)c2cccc(Br)c2)C1	1%	9%	0.4%
-12	O=C(CCc1ccccc1)Nc1ccc(F)cc1F	-40%	5%	-5.3%
.	O=C(Nc1ccccc1)C1CCCN1S(=O)(=O)c1cccs1 (stereo unspecified)	.	-5%	-0.1%
.	COC(=O)C1CN(C(=O)COc2ccccc2C)c2ccccc2O1 (stereo unspecified)	1%	3%	-0.1%
.	Oc1cccc(-n2nnnc2SCc2ccccc2F)c1	-11%	5%	1.1%
-9	COc1cccc(OCCNC(=O)CSc2ccc(C(F)(F)F)cc2[N+](=O)[O-])c1	1%	0%	-1.0%
-2	COCCNC(=O)COc1ncnc2ccc(Br)cc12	-2%	-18%	-1.5%
.	Cc1c(C(=O)NNC(=O)c2ccccc2O)oc2ccc(Br)cc12	.	-5%	-3.7%
.	CC1=CC(=O)C(C(C)=Nc2cccc(Cl)c2)C(=O)O1 (stereo unspecified)	.	0%	0.4%
9	CC1CCN(CC(=O)NC(=O)NCc2ccccc2)CC1	-6%	4%	2.2%
-3	CC(C)(C)CNC(CO)C12CC3CC(CC(C3)C1)C2 (stereo unspecified)	-1%	7%	1.6%
-3	CCN(CC)S(=O)(=O)c1ccc(OC)c(NC(=O)C(Cc2ccccc2)N2C(=O)c3ccccc3C2=O)c1 (stereo unspecified)	-1%	.	.
3	COc1cccc(C(=O)Nc2nnc(-c3cccs3)o2)c1	5%	1%	2.2%
-8	Cc1nc(NC(=O)c2ccccc2)sc1-c1csc(Nc2ccc(C(=O)O)cc2)n1	-13%	-5%	-6.1%

Overlap with the part before: three entries, followed by the next part.
GLA inh pH 4.5	compound	miR-21 FLuc	Rango dissoc inh	Rango complex inh
-3	CCN(CC)S(=O)(=O)c1ccc(OC)c(NC(=O)C(Cc2ccccc2)N2C(=O)c3ccccc3C2=O)c1 (stereo unspecified)	-1%	.	.
3	COc1cccc(C(=O)Nc2nnc(-c3cccs3)o2)c1	5%	1%	2.2%
-8	Cc1nc(NC(=O)c2ccccc2)sc1-c1csc(Nc2ccc(C(=O)O)cc2)n1	-13%	-5%	-6.1%
.	Cn1cccc1C(=O)Nc1ccc(Cl)c(S(=O)(=O)N2CCCCC2)c1	.	0%	-2.6%
-7	N#Cc1c(-c2ccccc2)c(-c2ccccc2)nn(CC(=O)NNC(=O)Nc2ccccc2)c1=O	21%	-28%	-4.3%
-2	CC1CCCCC1NC(=O)c1nn(C)c(=O)c2ccccc12 (stereo unspecified)	-3%	21%	-1.0%
.	COc1ccc(CNC(=O)C(=O)c2cn(CC(=O)N3CCCC3)c3ccccc23)cc1	-26%	-1%	-1.3%
-3	Cn1c(=O)c2c(nc(NCCOc3ccc(F)cc3)n2C)n(C)c1=O	1%	-14%	-1.0%
-5	Cc1oc(-c2cc3c(cc2Cl)OCO3)nc1CN1CCCC1c1ccc(F)cc1 (stereo unspecified)	-2%	-7%	0.6%
.	O=C(/C=C/c1ccccc1)NCCc1c[nH]c2ccccc12	.	-1%	-2.9%
-13	O=[N+]([O-])c1ccc2c(c1)/C(=N\O)c1ccccc1-2	9%	-23%	-2.5%
-1	COc1cccc(CN2CCCC(C(=O)c3ccc4c(c3)OCO4)C2)c1OC (stereo unspecified)	-3%	-2%	0.9%
.	CCN(CC)S(=O)(=O)c1ccc(N2CCc3cc(OC)c(OC)cc3C2)nc1	-2%	-5%	-2.6%
.	COc1ccc2c(c1)c(CC(=O)OCC(=O)N(C)C)c(C)n2C(=O)c1ccc(Cl)cc1	4%	0%	2.9%
4	O=C1C(O)CC2c3ccccc3CC3(CCCC3)N12 (stereo unspecified)	-6%	-25%	-2.9%
.	CC(=O)Oc1ccccc1C(=O)N(C1CCCCC1)C1CCCCC1	27%	-1%	0.2%
3	COc1ccc(-c2nc3c(-c4ccccc4)cnn3cc2C)cc1F	-17%	-5%	-3.3%
0	O=C(CNS(=O)(=O)c1ccccc1)NCc1cccnc1	0%	-3%	-3.1%
4	CC/C(C)=N\NC(=O)CNC(=O)c1ccc(Cl)cc1Cl	10%	1%	0.4%
0	COc1ccc(OC)c(NC(=O)c2ccc(-n3cccn3)nc2)c1	-4%	10%	3.0%
.	O=C(COC(=O)C1CCN(c2ccc(C(F)(F)F)cn2)CC1)NCc1ccc(Cl)cc1Cl	.	0%	0.2%
.	CCN(CC)c1ccc(S(=O)(=O)N2CCOCC2)cc1NC(=O)Cn1nc(C)c([N+](=O)[O-])c1C	.	-5%	-3.8%
-8	CCNC(=O)COc1ccc(CC)cc1	-18%	-10%	2.7%

One compound at a time (already shown). Order of values: GLA inh pH 4.5	miR-21 FLuc	Rango dissoc inh	Rango complex inh
Results for COc1ccc(OC)c(NC(=O)c2ccc(-n3cccn3)nc2)c1 : 0	-4%	10%	3.0%
Results for O=C(COC(=O)C1CCN(c2ccc(C(F)(F)F)cn2)CC1)NCc1ccc(Cl)cc1Cl : .	.	0%	0.2%
Results for COc1ccc(-c2nc3c(-c4ccccc4)cnn3cc2C)cc1F : 3	-17%	-5%	-3.3%
Results for O=C(CNS(=O)(=O)c1ccccc1)NCc1cccnc1 : 0	0%	-3%	-3.1%
Results for COc1ccc2c(c1)c(CC(=O)OCC(=O)N(C)C)c(C)n2C(=O)c1ccc(Cl)cc1 : .	4%	0%	2.9%

The results go on.
GLA inh pH 4.5	compound	miR-21 FLuc	Rango dissoc inh	Rango complex inh
-3	O=C(COC(=O)c1cnccn1)Nc1ccc(Cl)cc1	-5%	-9%	-6.5%
-3	O=C(Nc1ccc(CN2CCCCC2)cc1)c1c(F)c(F)c(F)c(F)c1F	0%	26%	4.7%
4	O=C1N[C@@H](Cc2ccccc2)[C@@H](c2ccco2)O1	-1%	17%	-1.0%
5	COc1ccc(C(=O)CN2C(=O)c3ccccc3C2=O)cc1	-16%	1%	-1.0%
0	COc1ccc(-c2n[nH]c(=S)n2/N=C/c2cccn2C)cc1	-15%	2%	-1.6%
29	Cc1ccc(C2C3=C(CC(C)(C)CC3=O)N(CCN3CCOCC3)C3=C2C(=O)CC(C)(C)C3)cc1	-3%	?	?
1	COc1ccc(N2C(=O)CC(SC(C)C)C2=O)cc1 (stereo unspecified)	-1%	0%	4.3%
6	Cc1ccc(CSCC(Nc2ccc(C(=O)O)cc2[N+](=O)[O-])C(=O)O)cc1 (stereo unspecified)	1%	-3%	7.3%
-7	COc1cccc(N=Nc2c(N)[nH]n3c(=O)c4c(nc23)CCCC4)c1	-1%	-4%	-0.4%
0	O=S(=O)(Nc1nc2ccccc2nc1Nc1ccc(N2CCOCC2)cc1)c1cc(Cl)ccc1Cl	-2%	-13%	?
.	CN1CCN(S(=O)(=O)c2ccc([N+](=O)[O-])cc2)CC1	-6%	6%	3.7%
.	Cc1ccc(Cl)c2sc(N3CCN(C(=O)c4ccco4)CC3)nc12	.	-7%	-1.5%
2	O=C(COc1ccc(Cl)cc1)N1CCCC1	-56%	-15%	1.1%
.	Cc1ccc(C)c(NC(=O)CN(C)C(=O)c2ccc(S(=O)(=O)N3CCCCCC3)cc2)c1	.	?	-5.4%
-11	O=C(COc1cc(Cl)c(Cl)cc1Cl)Nc1ccc([N+](=O)[O-])cc1Cl	-5%	-5%	-4.0%
.	O=S(=O)(Nc1ccccc1-c1ccccc1)c1ccccc1	.	2%	1.7%
.	Cc1ncc(CN2CCCCC2C(=O)Nc2ccc(Oc3ccccc3)nc2)cn1 (stereo unspecified)	-15%	5%	1.4%
.	CC(C)(C)OC(=O)C[C@@H]1C/C=C\C[C@H](CC(=O)N(CCO)Cc2ccccc2)C(=O)N[C@@H](Cc2c[nH]c3ccccc23)COC1=O	.	-18%	0.7%
11	CCNC(=O)CSc1nc2ccccc2c(=O)n1OC	-3%	-5%	-3.3%
.	CC(NC(=O)c1cn(C)c2ccc(S(=O)(=O)N3CCCC3)cc2c1=O)c1ccccc1 (stereo unspecified)	1%	24%	-0.4%
6	Cc1ccccc1OCCCN1CCCC1	-3%	-4%	-1.5%
1	CCn1c(SCC(=O)Nc2nccs2)nnc1-c1ccco1	3%	-2%	1.2%
.	O=C(CCS(=O)(=O)c1ccc2c(c1)NC(=O)CO2)NCc1ccccc1	-1%	8%	5.4%
-2	CCC(=O)Nc1c2c(nn1-c1ccc(F)cc1)CS(=O)C2 (stereo unspecified)	-4%	-8%	-0.9%
.	Cc1cccc(C)c1NC(=O)CNC(=O)c1ccccc1OCc1ccccc1	.	11%	-1.1%
6	CC(=O)NC1(C(F)(F)F)C(=O)Nc2c1c(=O)n(C)c(=O)n2C (stereo unspecified)	-1%	-6%	0.7%
1	Cc1ccc(CN2CCN(C(=O)c3ccncc3)CC2)cc1	0%	7%	0.9%
1	Cc1ccc(-n2c(SC3CCOC3=O)nc3ccccc3c2=O)cc1 (stereo unspecified)	-6%	.	.
.	CC(=O)c1ccc(OCc2cc(C(=O)N(C)C(C)c3nccs3)no2)cc1 (stereo unspecified)	-15%	11%	-0.5%
11	Cc1cc(=O)[nH]c2c(C)c(N)ccc12	1%	-10%	2.7%

Structures above with bromine:
GLA inh pH 4.5	compound	miR-21 FLuc	Rango dissoc inh	Rango complex inh
1	O=C(O)C1CN(C(=O)c2cccc(Br)c2)C1	1%	9%	0.4%
-2	COCCNC(=O)COc1ncnc2ccc(Br)cc12	-2%	-18%	-1.5%
.	Cc1c(C(=O)NNC(=O)c2ccccc2O)oc2ccc(Br)cc12	.	-5%	-3.7%

Further results.
GLA inh pH 4.5	compound	miR-21 FLuc	Rango dissoc inh	Rango complex inh
.	CN1CCN(C(=O)c2ccc3c(c2)N(Cc2ccccc2)CCS3)CC1	1%	1%	-0.4%
.	Cc1c(C(=O)N/N=C/c2ccccn2)nnn1-c1nonc1N	0%	10%	-1.3%
1	COc1ccc(-c2nc(-c3ccc(Br)o3)no2)cc1OC	-30%	-1%	-2.9%
7	Cc1ccnc2ccc(SC(F)(F)F)cc12	5%	-8%	3.2%
0	CCOC(=O)N1CCN(C(=O)c2ccc3c(=O)n(Cc4ccccc4OC)c(=S)[nH]c3c2)CC1	-2%	-7%	0.1%
-2	CCCC(CCC(=O)Nc1ccn(-c2ccccc2)n1)C(=O)O (stereo unspecified)	3%	1%	-3.5%
.	CN1CCC(N(C)C(=O)c2cc(-c3ccccc3Cl)nc3ccccc23)CC1	.	-5%	1.7%
.	Cc1oc2c(C)c3oc(=O)c(CCC(=O)NCCCCCC(=O)O)c(C)c3cc2c1C	-1%	-11%	1.0%
5	COc1ccc(-c2cc3ccccc3[nH]2)cc1	-56%	6%	-5.7%
.	Cc1ccccc1CCNC(=O)CCn1ccc2cc(S(=O)(=O)N3CCCC3)ccc21	0%	0%	-1.5%
0	NC1=NC(=O)/C(=C/c2ccccc2OS(=O)(=O)c2ccc3ccccc3c2)S1	-5%	4%	0.0%
.	O=C(NC1CCN(S(=O)(=O)c2ccccc2C(F)(F)F)CC1)c1ccco1	2%	-1%	-1.1%
.	Cc1ccc(OCCNC(=O)c2ccc(C)o2)cc1	.	11%	-1.5%
.	CC(C)C[C@@H](CO)N1CCN(Cc2cccnc2)CCC1=O	2%	-5%	-1.7%
.	O=c1c(Cc2ccc(Cl)cc2Cl)c(O)ccn1CC(F)(F)F	-5%	1%	-0.6%
.	COc1ccc(N/C(N)=N/c2nc(C)cc(=O)[nH]2)cc1	0%	-9%	-1.6%
.	COc1ccccc1C(=O)NC(=O)COC(=O)c1ccc(Br)o1	.	17%	8.2%

Screening results deposited in PubChem by National Center for Advancing Translational Sciences (NCATS).
